# Compound activity deposited in PubChem BioAssay by National Center for Advancing Translational Sciences (NCATS).
# 2A firefly: Primary qHTS Assay for Foot and Mouth Disease Virus Antivirals against NCGC Sytravon and CBC Compound Libraries: Firefly Luciferase Signal; 0.23% of 120,000 active; Potency, µM (highest dose often 57.5 µM), for the others: top-dose signal change, negative = less light; HEK cells with a luciferase reporter of 2A StopGo recoding; active = well fitted falling curve with a large enough effect; inconclusive = small, poorly fitted or top-dose-only effect; inactive = no such curve, though single readings can be large or run the other way; also: nearly all actives have a fitted effect of over 60% in size; overnight with compound
# StopGo RLuc: Primary qHTS Assay for Foot and Mouth Disease Virus Antivirals against NCGC Sytravon and CBC Compound Libraries: Renilla Luciferase Signal; AID 1745857, 2022; Potency, µM (doses to about 57.5 µM), without a hit: at the top dose signal change, negative = less light; 0.32% of 120,000 active; HEK cells with a luciferase reporter of 2A StopGo recoding; active means well fitted falling curve with a large enough effect; inconclusive means small, poorly fitted or top-dose-only effect; inactive means no such curve, though single readings can be large or run the other way; also: nearly all actives have a fitted effect of over 55% in size; overnight with compound
# Numbers without * were called inactive; ? = inconclusive; [ ] = remark or other dose. % is scaled to controls: 0 for no effect and ±100 for the full control effect; potency is read from the fitted curve at half-maximal effect. Only part of the results is shown (hit frequency here may not be typical).
SMILES,2A firefly,StopGo RLuc
COc1cc(Cl)c(C)cc1NC(=O)c1cc2c(s1)-c1c(C)cccc1OC2,11%,-9%
Cc1ccc(CNC(=O)c2sc3nc(-c4ccccc4)cn3c2C)cc1,0%,29%
COc1cc(/C=N/O)c(Br)cc1OCc1ccccc1Cl,0%,10%
CC(NC(=O)NCC(=O)NCC(F)(F)F)c1cccc(C(F)(F)F)c1 (stereo not given),20%,-4%
COC(=O)c1ccccc1NC(=O)N1CCN(Cc2nc(-c3ccc(C)cc3)oc2C)CC1,4%,-8%
Cc1ccc(/C=C/C(=O)c2cc(C)ccc2O)cc1,14%,16%
CCn1cc2nc(SCC(=O)N3CCCC3)n(Cc3ccccc3)c(=O)c2n1,83%[activator],88%[activator]
c1csc(CNCCC2CCCCC2)c1,-4%,-5%
O=C(/C=C/c1ccc(F)cc1)Nc1ccccc1-c1ccccc1,25%,2%
N#Cc1c(-c2ccccc2)cc(-c2ccccc2)nc1SCC(O)CS(=O)(=O)Cc1ccc(Cl)cc1 (stereo not given),-23%,-1%
C#CCCN1CCN(C(=O)C2CCN(C(=O)/C=C/c3ccccc3)CC2)CC1,-19%,?
Cc1ccc(-c2nc3c4ccccc4n(CC(=O)N4CCN(c5ccccc5F)CC4)c(=O)n3n2)cc1,25%,12%
CSc1nc(N(C)CCO)c2sc3c(c2n1)COC(C)(C)C3,6%,-5%
CC(C)(C)c1ccc(-c2nc(C#N)c(N3CCCCC3)o2)cc1,12%,4%
C=Cc1ccc(Cn2c(C)c(CNCCc3ccc(OCC)cc3)c(C(=O)O)c2C)cc1,-21%,-21%
COc1cc(NC(=O)CN2C(=O)C(c3ccc(C)cc3)=NC23CCCCCC3)cc(OC)c1,0%,-6%
Cc1ccc(-n2c(SCCC(C)C)nc3sc4c(c3c2=O)CC(C)(C)OC4)cc1,-12%,-4%
Cc1cccc(N2CC(C)Cn3c2nc2c3c(=O)n(CC(=O)O)c(=O)n2C)c1 (stereo not given),-10%,-20%
O=C(NCc1ccc(S(=O)(=O)N2CCCC2)cc1)c1n[nH]c2ccccc12,?,?
CC(C)CN(CCNC(=O)COCc1cc(-c2cccs2)on1)CC(C)C,-9%,-14%
CCn1nc(C(=O)Nc2cccc(C(=O)Nc3ccncc3)c2)c2ccccc2c1=O,56%[activator],6%
COC(=O)C1=C(N)Oc2n[nH]c(-c3ccccc3)c2C12C(=O)N(Cc1cccc(F)c1)c1ccccc12 (stereo not given),-11%,-3%
COc1ccc(-c2cc(C(F)(F)F)nc(SCC(=O)NCCc3ccccc3)n2)cc1OC,10%,2%
COc1ccc(Cl)cc1NC(=O)CN1Cc2ccccc2C1=O,-14%,11%
CCCCCC(=O)Nc1ccc(NC(=O)c2cc3ccccc3o2)c(OC)c1,?,-4%
CCN(CC)C(=O)c1cccnc1-c1nc2ccccc2s1,15%,13%
CCc1ccccc1OCCSc1nnc(-c2cc(OC)c(OC)c(OC)c2)o1,24%,22%
Cn1c(=O)c2c(ncn2CC(=O)Nc2cccc(C(F)(F)F)c2)n(C)c1=O,-13%,-7%
COc1cc(OC)c(NC(=O)N2CC=C(c3c[nH]c4ccccc34)CC2)cc1Cl,-6%,-16%
O=C(c1ccco1)n1nc(-c2ccccc2)nc1NCc1ccc(F)cc1,8%,-4%
Cc1cc(C)cc(C(=O)NCC(c2ccccc2)c2c[nH]c3ccccc23)c1 (stereo not given),-17%,-11%
COc1ccc(Cl)cc1-n1nnc(C(=O)Nc2cc(C)ccc2C)c1C,1%,-5%
O=C(Cn1ccc2c(Br)cccc21)Nc1nccs1,38%[activator],15%
O=C(c1ccccc1)N1CCN(CCc2ccncc2)CC1,-4%,6%
CCOc1ccc(-c2nnc(SCC(=O)Nc3cccc(C#N)c3)o2)cc1,43%[activator],-7%
COc1cc(OC)c(NC(=O)CN2C(=O)CCn3nc(-c4cccn4C)cc32)cc1Cl,-14%,-16%

# Another view of some results above:
# The line under a structure holds: 2A firefly	StopGo RLuc
- Cn1c(=O)c2c(ncn2CC(=O)Nc2cccc(C(F)(F)F)c2)n(C)c1=O
  -13%	-7%
- COc1cc(OC)c(NC(=O)N2CC=C(c3c[nH]c4ccccc34)CC2)cc1Cl
  -6%	-16%

# Further compounds follow:
SMILES,2A firefly,StopGo RLuc
CCCn1c(SCC(=O)Nc2ccc(Cl)cc2)nc(O)cc1=O,-11%,-15%
CCn1ccc2cc(S(=O)(=O)N3CCC(C(=O)NCC4CCCO4)CC3)ccc21 (stereo not given),34%,42%[activator]
Cn1nc(C(=O)NCc2cccc(Cl)c2)c2ccccc2c1=O,45%[activator],23%
CCCCN1CCCC[C@H]1C(=O)Nc1c(C)cccc1C,-13%[11.5 µM],-5%
CCOc1c(C)cc(-c2ncccc2O)cc1C,0%,31%[activator]
Cn1c(=O)c2c(nc(Cl)n2CC(=O)c2ccc(C(C)(C)C)cc2)n(C)c1=O,?,11µM*
Cc1cc(NC(=O)c2ccc(Cl)c(Cl)c2)ccc1-c1cc2ccccc2oc1=O,-4%,-2%
N#Cc1cccnc1NCCc1coc(-c2ccc(F)cc2)n1,223%[activator],11%
CCOc1ccc(S(=O)(=O)n2ccnc2CC)cc1C,-7%,10%
COc1cccc(C(=O)c2cn(CC(=O)Nc3cccc(C(F)(F)F)c3)c3nc(C)ccc3c2=O)c1,-6%,8%
Cc1nc2ccn(Cc3cccnc3)c(=O)c2cc1C(=O)Nc1ccc(OC(F)(F)F)cc1,?,-16%
O=C(O)/C=C/c1ccc(-c2ccc(Br)cc2)s1,-19%,21%
CCc1ccc(CNC(=O)c2cc3cc(S(=O)(=O)N4CCCCC4)ccc3n2C)cc1,-29%,?
CSc1cccc(NC(=O)/C(=C/c2ccccc2Cl)c2ccccc2)c1,7%,18%
COc1cc(N2C(=O)CSC23C(=O)N(Cc2cccc(F)c2)c2ccccc23)cc(OC)c1OC (stereo not given),-5%,3%
CCN1CCCC1CNC(=O)CCCc1nc2ccccc2[nH]1 (stereo not given),0%,-13%
CCOc1ccccc1NC(=O)n1ncc2cc(Cl)ccc21,24%,-12%
Cc1cc(NC(=O)CN(C)S(=O)(=O)c2ccc3c(c2)CCC(=O)N3)ccc1Br,?,?
Cc1cc(C)cc(Nc2nc3c(S(=O)(=O)c4cccc(Cl)c4)nnn3c3ccsc23)c1,1%,32%[activator]
O=C(O)c1ccc(CNCc2ccc(Br)cc2)cc1,20%,16%
CCOC(=O)c1c(C)oc2ncnc(NCCc3ccccc3)c12,1%,-9%
O=C(NCC(c1cccs1)N1CCCC1)c1cc(=O)c2ccc(Br)cc2o1 (stereo not given),-6%,8%
O=C(Nc1onc2c1CCCC2)c1ccccc1,11%,32%[activator]
COc1ccc(OCC(=O)NCc2ccc3c(c2)CCN3C(=O)c2ccc(F)cc2)cc1,-15%,1%
CC(C)(C)c1ccc(C(=O)Nc2ccc(F)c(Cl)c2)cc1,-26%,?
COc1ccccc1-c1c(C)nn2c(N3CCN(c4cccc(Cl)c4)CC3)cc(C)nc12,-26%,-10%
O=C(Cc1ccccc1Cl)N1CC=C(c2c[nH]c3ncccc23)CC1,-6%,-2%
COc1cccc(-c2nc3c(C#N)c[nH]n3c2NC2CCC(C)CC2)c1 (stereo not given),8%,6%
O=C(CSc1nc2ccccc2o1)Nc1ccc(F)cc1F,201%[activator],-1%
Cc1c(Cc2ccccc2)c(-n2ccnc2)n2c(nc3ccccc32)c1C#N,-11%,-17%
Cc1ccc(NC(=O)c2sc3nc[nH]c(=O)c3c2C)cc1C,67%[activator],-2%
Cc1cc(N2CCCCC2)nc2ccc(NC(=O)c3cccc(F)c3)cc12,28%,-6%
Cc1cc(C)c(NC(=O)CN2CCC(C(=O)N3CCCC3)CC2)c(C)c1,-6%,-12%
CCN(CC)C(=O)c1sc(NC(=O)c2ccc3c(c2)OCO3)c(C(=O)OC(C)C)c1C,-12%,-8%
Cc1ccc(CNC(=O)c2cccc(-n3cnc4cccnc43)c2)cc1,23%,35%[activator]
O=C(O)Cn1c(-c2cccs2)cc2cc(Cl)ccc21,42%[activator],24%

# Reprinted at random: 6 compounds from above.
SMILES,2A firefly,StopGo RLuc
CCN(CC)C(=O)c1sc(NC(=O)c2ccc3c(c2)OCO3)c(C(=O)OC(C)C)c1C,-12%,-8%
Cc1ccc(CNC(=O)c2cccc(-n3cnc4cccnc43)c2)cc1,23%,35%[activator]
CCCCCC(=O)Nc1ccc(NC(=O)c2cc3ccccc3o2)c(OC)c1,?,-4%
Cn1nc(C(=O)NCc2cccc(Cl)c2)c2ccccc2c1=O,45%[activator],23%
Cc1ccc(-c2nc3c4ccccc4n(CC(=O)N4CCN(c5ccccc5F)CC4)c(=O)n3n2)cc1,25%,12%
CC(C)CN(CCNC(=O)COCc1cc(-c2cccs2)on1)CC(C)C,-9%,-14%

# Continued.
SMILES,2A firefly,StopGo RLuc
CSc1cccc(NC(=O)c2ccccc2SC)c1,69%[activator],6%
COc1ccc(Cn2nnc3c(=O)[nH]c(C4CCN(C(=O)c5ccc(C)cc5)CC4)nc32)cc1OC,0%,?
COc1ccc(CNC(=O)c2cnc(N(C)C)nc2)cc1,1%,8%
CCOc1ccc(C(=O)OCC(=O)NC(N)=O)cc1OCC,-7%,-5%
CC(Oc1ccc(Cl)cc1Cl)C(=O)NN (stereo not given),8%,-7%
CCC(C)(CN(C)C)OC(=O)c1ccccc1 (stereo not given),-16%,-11%
Cc1cc2oc(=O)cc(CN3CCCCC3C)c2cc1Cl (stereo not given),7%,8%
CCOC(=O)c1cn(C)nc1S(=O)(=O)N1CCCC1,8%,-10%
O=C(N[C@@H](C(=O)NCc1cccnc1)c1ccccc1)C(c1ccccc1)c1ccccc1,6%,31%[activator]
Cc1ccc2cccc(NC(=O)C(C)Oc3ccc(Cl)c(C)c3)c2n1 (stereo not given),14%,19%
O=S(=O)(NCc1cc2cc(F)ccc2s1)c1ccc(Br)s1,?,?
O=C(Nc1ncccn1)C1=C(O)c2ccccc2S(=O)(=O)N1Cc1ccccc1,21%,8%

# Structures above that contain two or more sulfur atoms:
SMILES,2A firefly,StopGo RLuc
N#Cc1c(-c2ccccc2)cc(-c2ccccc2)nc1SCC(O)CS(=O)(=O)Cc1ccc(Cl)cc1 (stereo not given),-23%,-1%
CSc1nc(N(C)CCO)c2sc3c(c2n1)COC(C)(C)C3,6%,-5%
Cc1ccc(-n2c(SCCC(C)C)nc3sc4c(c3c2=O)CC(C)(C)OC4)cc1,-12%,-4%
Cc1cc(C)cc(Nc2nc3c(S(=O)(=O)c4cccc(Cl)c4)nnn3c3ccsc23)c1,1%,32%[activator]
CSc1cccc(NC(=O)c2ccccc2SC)c1,69%[activator],6%
O=S(=O)(NCc1cc2cc(F)ccc2s1)c1ccc(Br)s1,?,?

# Later entries.
SMILES,2A firefly,StopGo RLuc
Cc1cc(C)c(Cn2c(=O)n(CCC(=O)NCCc3ccccc3)c(=O)c3ccccc32)c(C)c1,-9%,3%
Cc1ccc2c(CC(=O)N3CCN(c4cccc(Cl)c4)CC3)coc2c1C,-18%,-15%
O=C(CCc1ncc(-c2ccc(F)cc2F)o1)NCc1ccc2c(c1)OCO2,0%,-4%
COCC(C)NC(=O)c1cc2cc(N(C)S(=O)(=O)c3ccc(C)cc3)ccc2s1 (stereo not given),-8%,2%
COc1ccc2c(c1)c1c(c(=O)n(CCc3ccccc3)c(=O)n1Cc1ccccc1)n2C,3%,-6%
COC(=O)C1=C(C)N(c2cc(C)ccc2C)C(=S)NC1c1ccsc1 (stereo not given),-11%,52%[activator]
O=C(NCC(=O)N1CCN(CC(=O)N2CCCC2)CC1)c1ccc(N2CCCC2=O)cc1,10%,-3%
O=C(NC1CCN(Cc2cccc(C(F)(F)F)c2)CC1)C1CC=CCC1 (stereo not given),?,?

# Whole records from above. Order of screens: 2A firefly	StopGo RLuc
# Profile of COc1cccc(C(=O)c2cn(CC(=O)Nc3cccc(C(F)(F)F)c3)c3nc(C)ccc3c2=O)c1 → -6%	8%
# Profile of COC(=O)C1=C(N)Oc2n[nH]c(-c3ccccc3)c2C12C(=O)N(Cc1cccc(F)c1)c1ccccc12 (stereo not given) → -11%	-3%
# Profile of O=C(CCc1ncc(-c2ccc(F)cc2F)o1)NCc1ccc2c(c1)OCO2 → 0%	-4%
# Profile of O=C(Nc1ncccn1)C1=C(O)c2ccccc2S(=O)(=O)N1Cc1ccccc1 → 21%	8%
# Profile of O=C(Cn1ccc2c(Br)cccc21)Nc1nccs1 → 38%[activator]	15%
